# Env fusion inh – inhibitors of HIV Env-mediated cell fusion; HeLa-JRFL Env/CEM21 cell fusion, luciferase; inhibition, % at 12.3 µM; hit rate 1.1% among 360,000; AID 651610;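 active = mean replicate inhibition score of at least 50 and every replicate individually at or above 50; inconclusive = only one of the two criteria met; inactive = mean below 50 and not all replicates reaching 50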;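 note: 0% = plate neutral controls and 100% = maraviroc near 300 nM; one replicate is shown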
# Starred values were filed as active, the others as inactive; u = inconclusive; [ ] = dose if it differs, or a comment. Only part of the results is shown; the hit share may differ from the screen's.
# Start of the listing, in advance, 4 compounds:
canonical_smiles | Env fusion inh
O=C(C[C@@H]1C[C@H]2c3cc(NC(=O)Cc4ccncc4)ccc3O[C@H]2[C@H](CO)O1)NCCN1CCCCC1 | -14[16.7 µM]
CO[C@@H]1CN(C)C(=O)c2cc(NC(=O)C3CC3)ccc2OC[C@@H](C)N(C(=O)C2CCOCC2)C[C@H]1C | 1[16.7 µM]
CCC(=O)Nc1ccc2c(c1)OC[C@@H](C)N(CCc1ccccc1)C[C@@H](C)[C@H](OC)CN(C)C2=O | 17[16.7 µM]
COc1ccc(S(=O)(=O)N2CCCc3nc(-c4ccc(F)cc4)ccc32)cc1 | 21

# The whole of this part (from the top)
canonical_smiles | Env fusion inh
O=C(C[C@@H]1C[C@H]2c3cc(NC(=O)Cc4ccncc4)ccc3O[C@H]2[C@H](CO)O1)NCCN1CCCCC1 | -14[16.7 µM]
CO[C@@H]1CN(C)C(=O)c2cc(NC(=O)C3CC3)ccc2OC[C@@H](C)N(C(=O)C2CCOCC2)C[C@H]1C | 1[16.7 µM]
CCC(=O)Nc1ccc2c(c1)OC[C@@H](C)N(CCc1ccccc1)C[C@@H](C)[C@H](OC)CN(C)C2=O | 17[16.7 µM]
COc1ccc(S(=O)(=O)N2CCCc3nc(-c4ccc(F)cc4)ccc32)cc1 | 21
O=C(c1ccc(F)cc1)C1CCN(CCCn2c(=O)[nH]c3ccccc32)CC1 | -4
CC(C)NC(=O)N(C)C[C@H]1OCCCC[C@@H](C)Oc2ccc(NC(=O)CCC(F)(F)F)cc2C(=O)N([C@H](C)CO)C[C@H]1C | -3[16.7 µM]
C[C@H]1CN([C@@H](C)CO)C(=O)c2cc(NS(=O)(=O)c3ccccc3)ccc2O[C@H]1CN(C)S(=O)(=O)c1ccc(Cl)cc1 | 21[16.7 µM]
CO[C@H]1CN(C)C(=O)c2cc(NC(=O)c3ccc4c(c3)OCO4)ccc2OC[C@@H](C)N(CC2CC2)C[C@@H]1C | 2[16.7 µM]
CCNC(=O)C[C@H]1CC[C@@H]2[C@H](COc3ccc(NC(C)=O)cc3C(=O)N2C)O1 | -7[16.7 µM]
C[C@H](CO)N1C[C@H](C)[C@@H](CN(C)Cc2ccncc2)Oc2ccc(NC(=O)CCN3CCOCC3)cc2C1=O | -6[16.7 µM]
CN1C(=O)c2cc(NS(C)(=O)=O)ccc2OC[C@@H]2O[C@H](CC(=O)N3CCOCC3)CC[C@H]21 | 7[16.7 µM]
CS(=O)(=O)c1ccc(OCCCN2CCC(C(O)(c3ccccc3)c3ccccc3)CC2)cc1 | 6
C[C@@H]1CN([C@H](C)CO)C(=O)c2cc(NC(=O)CCN3CCOCC3)ccc2O[C@@H]1CN(C)Cc1ccc(Cl)c(Cl)c1 | -9[16.7 µM]
CCCC(=O)Nc1ccc2c(c1)OC[C@H](C)N(CCC)C[C@@H](C)[C@@H](OC)CN(C)C2=O | 0[16.7 µM]
NC(=O)c1ncn([C@@H]2O[C@H](C(=O)N[C@H](Cc3ccccc3)C(=O)N3CCN(CC(=O)Nc4ccccn4)CC3)[C@@H](O)[C@H]2O)n1 | 22
CCOC(=O)N1CCN(C(=O)C[C@H]2C[C@@]3(C(=O)OC)C(=C[C@H](C(C)(C)C)O[C@@H]3C)N(CCC3=CCCCC3)C2=O)CC1 | 98*
CN(C)C(=O)C[C@H]1CC[C@@H]2[C@@H](COc3ccc(NC(=O)c4ccc(F)cc4)cc3C(=O)N2C)O1 | 13[16.7 µM]
COCC(=O)Nc1ccc2c(c1)[C@H]1C[C@@H](CC(=O)N[C@@H](C)c3ccccc3)O[C@H](CO)[C@H]1O2 | -10[16.7 µM]
CCCNC(=O)C[C@H]1C[C@H]2c3cc(NC(=O)NC4CCCCC4)ccc3O[C@H]2[C@@H](CO)O1 | -2[16.7 µM]
Cc1ccccc1C(=O)N[C@@H](Cc1cccnc1)C(=O)N1CCC[C@H]1C(=O)NCCc1ccccc1Cl | -7
C[C@@H]1CN([C@H](C)CO)S(=O)(=O)c2ccc(-c3ccccc3)cc2O[C@H]1CN(C)C(=O)c1ccc2c(c1)OCO2 | 2[16.7 µM]
CC(C)NC(=O)N1[C@H](C(=O)N2CCc3ccccc3C2)[C@@H](CO)[C@@H]2Cn3c(cccc3=O)[C@@H]21 | 0[16.7 µM]
N#Cc1ccc(-c2ccc3c(c2)[C@H]2[C@H](CCN2C(=O)C2CCC2)[C@H](CO)N3)cc1 | 1[16.7 µM]
COc1ccc(-c2cnc3c(c2)C(=O)N([C@@H](C)CO)C[C@@H](C)[C@@H](CN(C)S(=O)(=O)c2ccc(OC)cc2)O3)cc1 | -4[16.7 µM]
COc1cccc(CNC(=O)[C@H]2CCCN2C(=O)[C@H]2CCCN2C(=O)c2cccc3ccccc23)c1 | 6
Cc1cc(CN2CCN(c3ncc(Cc4ccccc4)cn3)CC2)cc(C)c1O | 22
CO[C@H]1CN(C)C(=O)c2cc(NS(C)(=O)=O)ccc2OC[C@@H](C)N(C(=O)C2CCOCC2)C[C@H]1C | -3[16.7 µM]
C[C@H](CO)N1C[C@H](C)[C@@H](CN(C)C(=O)C2CCC2)Oc2ncc(-c3ccncc3)cc2C1=O | 5[16.7 µM]
C[C@H](NC(=O)C[C@H]1C[C@H]2c3cc(NC(=O)c4cccnc4)ccc3O[C@H]2[C@@H](CO)O1)c1ccccc1 | -2[16.7 µM]
CCCNC(=O)Nc1ccc2c(c1)OC[C@H](C)N(Cc1cccnc1)C[C@@H](C)[C@@H](OC)CN(C)C2=O | -31[16.7 µM]
CCCCCCCCN1C(=O)[C@@H](CC(=O)NCc2ccc(C)o2)C[C@@]2(C(=O)OC)C1=C[C@H](C1CCCC1)O[C@@H]2C | 24
O=C(C[C@@H]1C[C@H]2c3cc(NC(=O)C4CCOCC4)ccc3O[C@H]2[C@@H](CO)O1)NCc1cc(F)ccc1F | 7[16.7 µM]
COCC(=O)N(C)C[C@H]1Oc2cc(C#CC3CCCC3)ccc2S(=O)(=O)N([C@H](C)CO)C[C@H]1C | 4[16.7 µM]
COC(=O)c1cn(CCNC(=O)[C@@H](NS(=O)(=O)c2ccc(C)cc2)C(C)C)nn1 | -18[16.7 µM]
CCNC(=O)Nc1ccc2c(c1)C(=O)N(C)[C@@H]1CC[C@H](CC(=O)N[C@H](C)c3ccccc3)O[C@H]1CO2 | 0[16.7 µM]
CCCNC(=O)C[C@@H]1CC[C@@H]2[C@H](COC[C@@H](O)CN2Cc2ccccc2F)O1 | -16[16.7 µM]
Cc1ccc(NC(=O)NNC(=O)CSC2CCc3ccccc32)c(C)c1 (stereo unspecified) | -10
O=C(C[C@H]1CC[C@@H]2NC[C@H](O)COC[C@H]2O1)N1CCc2ccccc2C1 | 1[16.7 µM]
O=C(C(=O)N1CCC(CNC(=O)c2ccccc2F)CC1)c1cc2ccccc2o1 | -22
C[C@@H]1ON(C)[C@H]2C[C@H]3c4cc(N5CCOCC5)ccc4CCN3C[C@@H]12 | 3
Cc1ccc(NCN2C(=O)c3ccccc3C2=O)c(C)n1 | 1
CCN1[C@@H]2c3ccc(-c4ccccc4)c(=O)n3C[C@H]1[C@H](CO)[C@H]2C(=O)NCCCN1CCOCC1 | -3[16.7 µM]
O=C(NCC1CC1)[C@@H]1[C@@H](CO)[C@@H]2Cn3c(ccc(C4=CCCC4)c3=O)[C@H]1N2CCC(F)(F)F | 0[16.7 µM]
O=C(Nc1ccccc1F)N[C@@H]1CC[C@H](CCNC(=O)C2CCCCC2)O[C@H]1CO | -3[16.7 µM]
C[C@H](CO)N1C[C@H](C)[C@H](CN(C)Cc2ccncc2)OCCCC[C@H](C)Oc2ccc(NS(C)(=O)=O)cc2C1=O | -5[16.7 µM]
C[C@@H]1CN([C@@H](C)CO)C(=O)c2cc(NS(C)(=O)=O)ccc2O[C@@H]1CN(C)Cc1ccc2c(c1)OCO2 | -16[16.7 µM]
COC(=O)C1=C(C)N(Cc2ccccc2C(F)(F)F)C(=NCc2cc(OC)c(OC)c(OC)c2)NC1c1cccc(Cl)c1 (stereo unspecified) | -46
CO[C@H]1CN(C)C(=O)c2ccc(NC(=O)C3CC3)cc2OC[C@H](C)N(Cc2ccncc2)C[C@H]1C | 6[16.7 µM]
C=CCN1C(=O)c2n[nH]c(COC)c2C1c1ccc(F)cc1 (stereo unspecified) | -3
COc1ccccc1S(=O)(=O)Nc1ccc2c(c1)C(=O)N(C)C[C@@H](OC)[C@@H](C)CN[C@@H](C)CO2 | 61*[16.7 µM]
C[C@@H]1CN([C@H](C)CO)C(=O)c2cc(NS(C)(=O)=O)ccc2O[C@@H](C)CCCCO[C@H]1CN(C)CC1CC1 | -27[16.7 µM]
CO[C@@H]1CN(C)C(=O)c2cc(NC(=O)C3CCC3)ccc2OC[C@H](C)N(C)C[C@@H]1C | 12[16.7 µM]
O=C(C[C@H]1CC[C@H]2[C@@H](COC[C@@H](O)CN2Cc2nccs2)O1)NCc1ccc(F)cc1 | 4[16.7 µM]
C[C@H]1CN([C@@H](C)CO)C(=O)c2cc(NC(=O)Nc3ccccc3)ccc2O[C@H]1CN(C)C | 3[16.7 µM]
CC(C)NC(=O)N(C)C[C@@H]1Oc2ccc(N(C)C)cc2CC(=O)N([C@@H](C)CO)C[C@H]1C | -2[16.7 µM]
CO[C@H]1CN(C)C(=O)c2ccc(NC(=O)C3CCCC3)cc2OC[C@H](C)N(C(=O)CC2CC2)C[C@H]1C | 0[16.7 µM]
O=C(N[C@H](Cc1ccccc1)C(=O)N1CCN(C(=O)N2CCOCC2)CC1)[C@H]1O[C@@H](n2ccc(=O)[nH]c2=O)[C@H](O)[C@@H]1O | -12
CO[C@H]1CC[C@@H]2CCOc3c(C#N)cccc3C(=O)N(C)C[C@H](OC)[C@@H](C)C(=O)N(C)C[C@@H]1O2 | 0[16.7 µM]
COC(=O)Cc1nnn2c1CC(OC)c1ccccc1-2 (stereo unspecified) | -5
C[C@H](CO)N1C[C@H](C)[C@H](CN(C)C(=O)Nc2ccc(C(F)(F)F)cc2)OCCCC[C@H](C)Oc2ccc(N(C)C)cc2C1=O | 9[16.7 µM]

# Later entries:
canonical_smiles | Env fusion inh
COc1ccccc1NC(=O)N(C)C[C@H]1OCc2ccccc2-c2ccccc2C(=O)N([C@H](C)CO)C[C@H]1C | 3[16.7 µM]
COc1ccc2c3c([nH]c2c1)[C@@H](CO)N(C(=O)C1CC1)CC31CCN(S(C)(=O)=O)CC1 | -23[16.7 µM]
O=C(C[C@H]1C[C@H]2c3cc(NC(=O)C4CCC4)ccc3O[C@H]2[C@H](CO)O1)NCc1ccccn1 | 17[16.7 µM]
C[C@@H]1CN([C@@H](C)CO)S(=O)(=O)c2ccc(C3=CCCC3)cc2O[C@H]1CN(C)C(=O)C1CC1 | -5[16.7 µM]
COC(=O)c1cc2c(c3c4cc(C)ccc4n(S(=O)(=O)c4ccccc4)c13)C(=O)N(Cc1ccc(C(F)(F)F)cc1)C2 | u
CCc1c(-c2ccccc2OC)ncn1CCc1ccccc1OC | -13
CO[C@@H]1CN(C)C(=O)c2cc(NC(=O)Nc3c(C)noc3C)ccc2OC[C@H](C)N(CCC(F)(F)F)C[C@H]1C | -4[16.7 µM]
CN1CCN(C(=O)C[C@H]2CC[C@H]3[C@@H](COC[C@@H](O)CN3C(=O)c3ccccc3F)O2)CC1 | -1[16.7 µM]
COC(=O)C1=C(C)N(Cc2ccccc2C(F)(F)F)C(=NCc2ccc(C(F)(F)F)cc2)NC1c1cccc(C(F)(F)F)c1 (stereo unspecified) | -6
O=C1c2[nH]nc(-c3ccccc3)c2C(c2ccc(F)cc2)N1Cc1ccccc1 (stereo unspecified) | -49
O=C1c2[nH]nc(-c3ccccc3)c2C(c2cccc(C(F)(F)F)c2)N1c1ccccc1 (stereo unspecified) | -25
COCC(=O)N1C[C@H](C)[C@@H](OC)CN(C)C(=O)c2cc(NC(=O)C3CCC3)ccc2OC[C@@H]1C | 2[16.7 µM]
O=C(NCc1ccccc1)[C@H]1CCCN1C(=O)[C@H]1CCCN1C(=O)c1cccc(F)c1 | u
CC(C)NC(=O)NCC[C@@H]1CC[C@H](NS(=O)(=O)c2ccc(Oc3ccccc3)cc2)[C@@H](CO)O1 | 9[16.7 µM]
CO[C@H]1CN(C)C(=O)c2ccc(NC(=O)c3cc(C)on3)cc2OC[C@H](C)N(C)C[C@H]1C | -8[16.7 µM]
CCNC(=O)C[C@@H]1CC[C@H]2[C@@H](COC[C@H](O)CN2C(=O)c2ccccn2)O1 | -1[16.7 µM]
O=C(C1CCCC1)N1CC2(C1)[C@@H](c1ccccc1)[C@H](CO)N2Cc1ccc(Cl)cc1 | 3[16.7 µM]
CO[C@H]1CN(C)C(=O)c2cc(NS(=O)(=O)CC(F)(F)F)ccc2OC[C@H](C)N(CC2CCCCC2)C[C@@H]1C | -23[16.7 µM]
CCc1cc2c(nc1CC)CCCN2Cc1ccccc1C(F)(F)F | -43
COc1ccc(C#Cc2cnc3c(c2)C(=O)N([C@H](C)CO)C[C@@H](C)[C@@H](CN(C)CC2CC2)O3)cc1 | 25[16.7 µM]
COc1ccccc1S(=O)(=O)N(C)C[C@H]1OCc2ccccc2-c2c(n(C)c3ccccc23)C(=O)N([C@H](C)CO)C[C@H]1C | -16[16.7 µM]
CN(C)Cc1cn(CC[C@@H]2CC[C@@H](NC(=O)Cc3cccnc3)[C@H](CO)O2)nn1 | 16[16.7 µM]

# In a second layout: results already given
O=C(NCc1ccccc1)[C@H]1CCCN1C(=O)[C@H]1CCCN1C(=O)c1cccc(F)c1
  Env fusion inh: u
CC(C)NC(=O)NCC[C@@H]1CC[C@H](NS(=O)(=O)c2ccc(Oc3ccccc3)cc2)[C@@H](CO)O1
  Env fusion inh: 9[16.7 µM]
CO[C@H]1CN(C)C(=O)c2ccc(NC(=O)c3cc(C)on3)cc2OC[C@H](C)N(C)C[C@H]1C
  Env fusion inh: -8[16.7 µM]
CCNC(=O)C[C@@H]1CC[C@H]2[C@@H](COC[C@H](O)CN2C(=O)c2ccccn2)O1
  Env fusion inh: -1[16.7 µM]

# High-throughput results from PubChem BioAssay.
